Screening data (PubChem)
2A StopGo: High Throughput Screening for Foot and Mouth Disease Virus Antivirals; Potency, µM (titrated, usually from 57.9 µM), inactives show top-dose signal change, negative = less light; AID 1159524, 2015; 1.2% of 410,000 active; human cells with a luciferase reporter of 2A StopGo recoding; control for the full effect not named in the record; active = well fitted falling curve with a large enough effect; inconclusive = small, poorly fitted or top-dose-only effect; inactive = no such curve, though single readings can be large or run the other way; tested in HEK293T cells; note: % is set by controls: 0 for no effect and ±100 for the full control effect; nearly all actives have a fitted effect of over 45% in size; luciferase light after 4 h
RE007 growth inh: qHTS Assay for Inhibitors of the HIV-1 protein Vpr. S. pombe RE007 Vpr strain, BacTiter-Glo ATP luminescence, 24 h; control for the full effect not named in the record. Potency, µM (top dose mostly 92.2 µM), inactives show top-dose activity change, negative = less growth. 0.21% of 360,000 active. AID 651644, 2012; active = well fitted falling curve with a large enough effect; inconclusive = small, poorly fitted or top-dose-only effect; inactive = no such curve, though single readings can be large or run the other way;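 note: % is set by controls: 0 for no effect and ±100 for the full control effect; nearly all actives have a fitted effect of over 50% in size; the assay follows cell death caused by Vpr and the record does not say whether a fall means rescue or toxicity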
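Fission yeast strain RE007, carrying one chromosomally integrated HIV-1 vpr copy, was seeded at OD 0.01 in PMG+AL medium with 23 nL pinned compound. After 24 h at 30 °C and 99% humidity, viability was read by BacTiter-Glo luminescence.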
Cruzain Triton: qHTS Assay for Promiscuous and Specific Inhibitors of Cruzain (with detergent). Cruzipain (Trypanosoma cruzi), P25779. purified cruzain, Z-FR-AMC fluorescence, 0.01% Triton. Potency, µM, for the others: max response, negative = inhibition, usual class: inhibitors. 0.43% of 200,000 active. AID 1478, 2009; active = well fitted curve in the direction sought with a large enough effect; inconclusive = small, poorly fitted or top-dose-only effect, or another doubt; inactive = no such curve, though single readings can be large; an effect the other way counts as inactive or inconclusive;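 note: plate controls were neutral wells for no effect and buffer without enzyme for full effect; nearly all actives have a fitted effect of over 40% in size; top concentration of the series not given in the record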
Target sequence (P25779 123-467 limits assumed): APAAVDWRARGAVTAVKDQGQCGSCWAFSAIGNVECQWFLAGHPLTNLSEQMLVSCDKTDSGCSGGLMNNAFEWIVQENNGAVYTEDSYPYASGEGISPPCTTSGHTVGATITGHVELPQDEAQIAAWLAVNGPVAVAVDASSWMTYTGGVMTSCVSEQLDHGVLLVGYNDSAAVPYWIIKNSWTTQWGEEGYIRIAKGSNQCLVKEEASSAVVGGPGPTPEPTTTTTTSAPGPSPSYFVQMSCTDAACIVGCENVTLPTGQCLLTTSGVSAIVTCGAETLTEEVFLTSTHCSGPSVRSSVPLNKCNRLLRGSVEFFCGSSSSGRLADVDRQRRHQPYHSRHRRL
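Cruzain (1.5 nM) preincubated 15 min at RT with compound in 100 mM sodium acetate pH 5.5, 5 mM DTT, 0.01% Triton X-100. Reaction started with 2 uM Z-FR-AMC; AMC fluorescence (ex 360/em 450 nm) change over 60 s gave rate.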
Lassa entry inh: qHTS for Inhibitors of binding or entry into cells for Lassa Virus | Potency, µM (series often up to 37.9 µM), for inactives: at the highest dose activity change, negative = inhibition, usual class: inhibitors | Lassa virus pseudotype entry inhibition, cell reporter; control for the full effect not named in the record | 1.2% of 300,000 active | AID 540256, 2011; active means well fitted inhibition curve with a large enough effect; inconclusive means small, poorly fitted or top-dose-only effect, or effect the other way; inactive means flat fitted curve, though single readings scatter; tested in HEK293 cells; note: % is set by controls: 0 for no effect and ±100 for the full control effect; nearly all actives have a fitted effect of over 50% in size; luciferase read-out
NS1 function inh: qHTS Assay for Inhibitors of Influenza NS1 Protein Function; S. cerevisiae slowed by influenza A NS1, growth recovery by OD600; Potency, µM (series often up to 46.1 µM), for inactives: at the highest dose activity, positive = more growth; 0.4% of 270,000 active; note: actives are rising curves; nearly all actives have a fitted effect of over 50% in size
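A cell-based growth assay was used: compounds that relieve NS1-induced slow growth of budding yeast raise OD600. Assay medium was yeast nitrogen base with ammonium sulphate and -URA supplement, pH 6.0, with 2% galactose.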
MARV entry inh: qHTS for inhibitors of binding or entry into cells for Marburg Virus. Marburg virus pseudotyped entry inhibition, cell reporter; control for the full effect not named in the record; about a third of the inactives were read at about 46 µM. Potency, µM (doses to about 37.8 µM), inactives show at the top dose activity change, negative = inhibition, most hits filed as inhibitors. 1.8% of 300,000 active; active = well fitted inhibition curve with a large enough effect; inconclusive = small, poorly fitted or top-dose-only effect, or effect the other way; inactive = flat fitted curve, though single readings scatter; tested in HEK293 cells; about a fifth of its hits are not listed in these tables; note: % is set by controls: 0 for no effect and ±100 for the full control effect; luciferase read-out
Cruzain inh noDet: qHTS Assay for Promiscuous and Specific Inhibitors of Cruzain (without detergent); Cruzipain (Trypanosoma cruzi), P25779; purified cruzain, Z-FR-AMC fluorescence, no detergent; Potency, µM, for the others: max response, negative = inhibition, most hits filed as inhibitors; 2.3% of 200,000 active; AID 1476, 2009; active = well fitted curve in the direction sought with a large enough effect; inconclusive = small, poorly fitted or top-dose-only effect, or another doubt; inactive = no such curve, though single readings can be large; an effect the other way counts as inactive or inconclusive;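 note: plate controls were enzyme without inhibitor for no effect and buffer without enzyme for full effect; nearly all actives have a fitted effect of over 40% in size; top concentration of the series not given in the record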
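Detergent-free condition (0.00005% Triton X-100) in acetate buffer pH 5.5 with DTT. 1.5 nM enzyme and compound were pre-mixed 15 min, then 2 uM Z-FR-AMC substrate added; reaction progress from fluorescence change between first and third reads (60 s).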
SARS PLP yeast: qHTS of Yeast-based Assay for SARS-CoV PLP | S. cerevisiae expressing SARS-CoV PLpro, growth rescue; control for the full effect not named in the record | Potency, µM (doses to about 32.9 µM), for the others: at the top dose activity, positive = growth rescue | 0.19% of 330,000 active | AID 485353, 2010; note: 0% is about no effect; nearly all actives have a fitted effect of over 55% in size; growth read by luminescence after 48 h
An asterisk follows results filed as active; u = inconclusive; x = no result given; [ ] = another dose, or the depositor's remark. Unless noted, calls come from the whole dose curve; as a rule, active means well fitted rising curve with a large enough effect; inconclusive means small, poorly fitted or top-dose-only effect; inactive means no such curve, though single readings can be large or run the other way. Potency is the fitted concentration of half-maximal effect.

SMILES | 2A StopGo | RE007 growth inh | Cruzain Triton | Lassa entry inh | NS1 function inh | MARV entry inh | Cruzain inh noDet | SARS PLP yeast
C/C(=N\NC(=S)NCc1ccccc1)c1ccc(C)o1 | 26% | 1% | x | u | 1% | 22%[46.1 µM] | x | 0%
COc1ccc(-n2nnc3c(=O)n(CC(=O)N4CCCC4)cnc32)cc1 | -3% | -3% | 5.9% | 23% | 4% | 0% | -7% | -3%
COc1ccc(CNC(=O)C2CSC(=O)C2)cc1 (stereo not drawn) | u | -1% | 3.4% | -2% | 13% | 19% | -4% | 0%
CCOC(=O)c1ccc(NC2=CC(=O)C(=O)c3ccccc32)cc1 | -3% | -13% | -19% | u | 28% | u | -17% | -2%
Cc1cc(N2CCOCC2)nc(-c2ccc(Br)cc2)n1 | -11% | x | -5.3% | -1% | -9% | u | -12% | -8%
C/C=C/COC(=O)c1[nH]c2c(c1C)C(=O)CC(c1ccco1)C2 (stereo not drawn) | -5% | 2% | -6.8% | u | -1% | u | u | -20%
CCN(C(=O)Cn1c(SCC(=O)NCc2ccccc2)nc2ccccc21)c1cccc(C)c1 | 63%[activator] | x | -4.8% | -23%[46.1 µM] | x | x | u | x
O=C(CSC1=Nc2ccccc2C2=NC(Cc3ccccc3)C(=O)N12)Nc1ccccc1 (stereo not drawn) | -5% | x | -4.7% | -16%[46.1 µM] | x | x | -12% | x
Cc1ccccc1OCC(=O)N(Cc1cccc(F)c1)C1CCS(=O)(=O)C1 (stereo not drawn) | -11% | -10% | x | x | -8% | x | x | -1%
CCN(c1ccc(OC)cc1)S(=O)(=O)c1nnc(NC(=O)C2CCCCC2)s1 | -3% | 1% | x | x | -5% | x | x | -1%
Cc1ccc2cc(/C=N/NC(=O)[C@H](C)NC(=O)OC(C)(C)C)c(Cl)nc2c1 | -16% | 0% | -1.2% | 6% | 9% | u | 2% | 15%
CNS(=O)(=O)c1cn(CC(=O)Nc2ccc(C(C)=O)cc2)cc1S(=O)(=O)NC | 29% | x | -3.3% | u | x | x | -1% | x
COc1ccc(/C=C/C(=O)Nc2cccnc2)cc1OC | 19% | -11% | x | 15% | -6% | -4%[46.1 µM] | x | -1%
CC(=O)Nc1ccc(NC(=O)CSc2nnc(NC(=O)c3ccc(Br)o3)s2)cc1 | -20% | 4% | x | u | 7% | u | x | -7%
CC(C)(C)CC(=O)Nc1nnc(SCC(=O)NC2CCCC2)s1 | -15% | -11% | x | -6% | 3% | 8%[46.1 µM] | x | 0%
CN1CCN(C(=O)c2ccc(-c3cccs3)s2)CC1 | -4% | 5% | x | -7%[46.1 µM] | -2% | u | x | 0%
O=CN1CCN(C(=O)c2cc3cc(Cl)ccc3[nH]2)CC1 | 29% | -11% | x | 5% | 16% | 16% | x | 1%
CCc1ccc(C(=O)COC(=O)CNC(=O)c2ccco2)cc1 | 2% | 31% | 1.3% | u | -24% | -2% | -10% | -3%
O=C(O)c1cc(NCc2ccccc2C(F)(F)F)ccc1N1CCOCC1 | -17% | 0% | 3.9% | -4% | 4% | 5% | 3% | 7%
CCN(CC)CCSc1nc2ccc(OC)cc2[nH]1 | -22% | -12% | x | x | 2% | x | x | 1%
Cc1nnc(SCC(=O)Nc2ccc3c(c2)OCO3)s1 | -23% | 20% | x | -7%[46.1 µM] | 15% | u | x | 9%
O=C(NC1CCCC1)C1CCN(C(=O)Nc2cccc(Cl)c2)CC1 | -17% | -5% | x | -22%[46.1 µM] | -3% | 9%[46.1 µM] | x | 6%
CCOc1ccc(OCC)c(S(=O)(=O)NCc2ccccn2)c1 | x | -18% | 4.1% | 9% | 4% | 3% | -3% | 13%
COc1cccc(CNC(=O)Cc2csc3ccccc23)c1OC | -16% | x | -7.6% | 1%[46.1 µM] | x | 12%[46.1 µM] | 6% | x
COc1cccc(CNC(=O)C2CCN(S(=O)(=O)c3cccs3)CC2)c1 | x | -2% | 1.6% | -10% | 0% | 8% | 0% | 4%
COc1ccc(CNC(=O)c2cnc3sc(N4CCCC4)nn3c2=O)c(OC)c1 | -4% | x | 0.6% | 2%[46.1 µM] | x | x | 20% | x
CC(C)C(NC(=O)c1ccc2c(c1)OCCO2)c1nc2ccccc2[nH]1 (stereo not drawn) | -14% | -22% | x | 5%[46.1 µM] | -11% | -10%[46.1 µM] | x | -5%
CC(C)(C)n1nnnc1C(c1ccc(Cl)cc1)N(Cc1cccnc1)Cc1ccco1 (stereo not drawn) | u | 8% | -5.1% | u | -28% | u | 10% | -14%
COC(=O)c1sccc1-n1cccc1C(=O)C(=O)N1CC(C)OC(C)C1 (stereo not drawn) | 6% | 1% | 1.5% | -2% | -3% | u | 7% | 14%
O=C(CCl)N(c1ccccc1)C1CCCCC1 | u | 13% | x | u | x | u | x | 1%
COc1cc(/C=C/C(=O)OCC(=O)NC(=O)NCc2ccco2)ccc1OC(F)F | -14% | 7% | x | u | x | 9% | x | -13%
CCN(CC)CCN1C(=O)C(=O)/C(=C(/O)c2ccc(F)cc2)C1c1cccnc1 (stereo not drawn) | -3% | -9% | -3.1% | x | -7% | x | -5% | 12%
Cc1cc(C)n(CC(O)Cn2cnc3c2c(=O)n(C)c(=O)n3C)n1 (stereo not drawn) | -13% | -3% | -0.8% | 3% | 11% | 3% | -4% | -9%
COc1cccc(C(=O)NCC2CCCN(C(=O)c3ccc(C=O)cc3)C2)c1OC (stereo not drawn) | -15% | 29% | x | 2% | 1% | -3% | x | 13%
CCOC(=O)COc1ccc(CCNC(C)=O)cc1 | 2% | -7% | 0.6% | -18% | 4% | 15% | 4% | 4%
CC(C)c1c(C(=O)N/N=C/c2cccs2)nnn1-c1nonc1N | 16% | 8% | x | x | 3% | x | x | 13%
COCC(=O)Nc1c(C(=O)Nc2ccc3c(c2)OCCO3)oc2ccccc12 | 0% | -9% | x | u | x | 11µM* | x | 1%
OC(CN1CCOCC1)Cn1c2c(c3ccccc31)CCCC2 (stereo not drawn) | 1% | -10% | x | 2% | 5% | u | x | 3%
Cc1ccc(C)c(-n2c(Cc3cccs3)n[nH]c2=S)c1 | -11% | -7% | -2.2% | -1% | 16% | u | -9% | -22%
COc1ccc(OC)c(C(=O)CN2C(=O)N(c3ccc(C)cc3)S(=O)(=O)c3ccccc32)c1 | -4% | x | -4.8% | -1%[46.1 µM] | x | x | u | x
COC(=O)c1cc(COC(=O)CNC(=O)c2ccc(Br)cc2)oc1C | -9% | 1% | x | 16%[46.1 µM] | x | 2%[46.1 µM] | x | 8%
CN(C)c1nc(N)c([N+](=O)[O-])c(NCC2CCCO2)n1 (stereo not drawn) | 36%[activator] | -5% | x | 19% | 6% | -25%[14.2 µM] | x | 0%
Cc1c(N(C)S(=O)(=O)c2cccc(C(=O)NC(C)C)c2)c(=O)n(-c2ccccc2)n1C | -17% | -11% | x | u | 24% | -5%[46.1 µM] | x | 2%
CCn1c(O)c(C=Nc2ccccc2)n(-c2ccccc2)c1=S | -26% | 0% | -2.5% | u | 1% | u | -1% | -2%
Cc1nnc(SCC(=O)Nc2ccc(S(=O)(=O)N3CCCCC3)cc2)s1 | -7% | -14% | 1.4% | 16% | -2% | 5% | 1% | -1%
CC(NC(=O)c1cccnc1)C(=O)N1CCCCC1 (stereo not drawn) | -11% | -1% | 0.6% | 13% | 0% | 4% | 0% | 6%
CCCOc1ccc(C(=O)CCC(=O)OCC(=O)N2CC(=O)Nc3ccccc32)cc1 | 13% | 2% | 2.1% | 26% | 4% | -7% | 29% | -5%
COc1ccc(/C=N/NC(=O)CN2CCN(Cc3ccccc3)CC2)cc1Br | -6% | -6% | x | 6% | 0% | u | x | 0%
OCCc1c[nH]c2ccc(OCc3ccccc3)cc12 | 15% | -12% | x | x | -24% | x | x | -2%
CNS(=O)(=O)c1cc(NC(C)=O)c(C)cc1C | -11% | -4% | -1.1% | 28% | 19% | u | 9% | 3%
COc1ccccc1C(=O)NNC(=O)C(=O)Nc1cccc(Cl)c1C | -6% | -11% | x | 9% | -84% | -23%[46.1 µM] | x | -10%
COC(=O)c1cc(NS(=O)(=O)c2ccc(C)c3ccccc23)ccc1N1CCOCC1 | 46%[activator] | 4% | x | u | 0% | u | x | 0%
Cc1ccc(S(=O)(=O)C2(C(=O)Nc3ccc(C)c(Cl)c3)CC2)cc1 | 7% | x | -6.5% | -38%[46.1 µM] | x | u | -12% | x
Cc1ccc(S(=O)(=O)N2CCN(CCC#N)CC2)cc1 | -9% | 11% | x | 18% | x | -23% | x | 1%
CS(=O)(=O)N(Cc1ccc(C(=O)NC2CCCCC2O)cc1)c1ccccc1 (stereo not drawn) | 3% | -12% | 4.9% | -16% | -2% | -11% | -9% | 1%
Cc1ccc(-c2ccc(=O)n(CC(=O)Nc3ccc4c(c3)OCCO4)n2)cc1 | -5% | -4% | x | x | 6% | x | x | 0%
Fc1ccc(-n2cnnn2)c(F)c1 | x | -6% | 3.9% | 9% | 4% | 7% | 2% | 1%
COc1cccc(CC2(CO)CCCN(Cc3ccccc3-c3ccco3)C2)c1 (stereo not drawn) | -30% | -18% | x | -7% | 2% | -29%[46.1 µM] | x | 1%
CCN(c1ccc(OC)cc1)S(=O)(=O)c1nnc(NC(=O)COc2ccc(C)cc2)s1 | -20% | 1% | x | x | 18% | x | x | 0%
COc1ccc(OC)c(NC(=O)C(=O)NNC(=O)C23CC4CC(CC(C4)C2)C3)c1 | -19% | -17% | x | -25% | 4% | -26%[14.2 µM] | x | -1%
Cc1ccc(C(=O)/C=C/c2ccc3c(c2)OCCO3)c(O)c1 | 21% | -3% | x | 11% | -4% | 6%[46.1 µM] | x | -1%
CSc1nc2nc3c(cc2c(=O)n1-c1ccccc1)COC(C)(C)C3 | 15% | -18% | x | 3%[46.1 µM] | 5% | -6%[46.1 µM] | x | -1%
